Screening data: PubChem BioAssay, several laboratories
Ecoli growth: E. coli growth inhibition. Escherichia coli growth, OD600, 23 h; hits give low values. OD600 absorbance (no concentration beside the values). 330,000 tested, 0.21% active. AID 1053175;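 active = OD600 absorbance below the run mean of sample wells minus 3.6 SD, in any replicate, cut at about 0.56 in these data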;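 also: stock transfer was 300 nL into about 60 µL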
Beta2AR agonist: human beta-2 adrenergic receptor agonism by FAP. Am2.2-beta2AR cells, FAP receptor internalization, flow cytometry; reference of the scale not given here. response, % (concentration not given with the values). P07550. 340,000 tested, 0.43% active;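 active = response above a set limit, near 3 SD of response in nonfluorescent compounds, cut at about 42% in these data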;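 also: stock transfer was 100 nL into about 11 µL; a reference agonist was the positive control; negative values mostly stem from fluorescent compounds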
Vif A3G: inhibitors of Vif binding to APOBEC3G peptide, primary screen, biochemical, TR-FRET, GST-Vif 1-94, biotin-A3G peptide, dose response retest (AID 1117319); TR-FRET GST-Vif / biotin-A3G peptide binding; higher % means a stronger effect; test concentration not given here; strong numbers were not always called active; one-dose inhibition, %; IC50 in µM for titrated hits; 260,000 tested, 0.57% active;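 active = above the screen mean plus three standard deviations and confirmed in dose response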;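 also: Vif residues 1-94 fused to GST binding biotinylated APOBEC3G peptide 110-148; 0% = full assay without inhibitor and 100% = GST in place of GST-Vif; retest series ran down from 100 µM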
UCH37 inh: inhibitors of human deubiquitinating enzyme UCH37. 330,000 tested, 0.33% active. Q9Y5K5. inhibition, % (test concentration not listed). purified proteasome/UCH37, Ub-AMC cleavage fluorescence;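 active = mean of two replicates above 20%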;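 also: 0% = compound-free wells with enzyme and 100% = wells lacking proteasome; stock transfer was 100 nL into about 20 µL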
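Material: Human UCH37 enzyme supplied as purified proteasome complex | Schedule: 30 min preincubation with enzyme, 25 min cleavage at room temperature | Detection: AMC fluorescence 355/460 nm | Measure: % inhibition of Ub-AMC cleavage fluorescence | Controls: Wells without proteasome as full block, compound-free enzyme plus substrate as uninhibited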
HNF4A DNA FP: change in binding of human HNF4 alpha to DNA. P41235. HNF4a-FITC DNA binding, fluorescence polarization, 1 h. activity change, % at 10 µM. 360,000 tested, 0.3% active. AID 1224865; in the data active = activity change above about 30%, passing the limit was not always enough;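 also: controls were the assay level and a saturating level of protein; the project sought stronger binding though the title names inhibitors; some compounds called inactive have numbers as strong as hits; positive values seem to mean higher polarization but the record does not say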
A1 inh: inhibitors of the anti-apoptotic protein A1, read as caspase activation | MEF A1-2A-BIM cells, Caspase-Glo 3/7 luminescence, 3 h; percent of clofoctol response, vehicle zero | AID 2462 | 330,000 tested, 0.066% active | caspase activation, % (concentration not given with the values);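 active = over half of replicate activation scores above 10%, or exactly half above 10 with the replicate mean above 10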;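 also: wells of about 30 µL received 50 nL stock; many hits fall short of the cut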
LANA-H2B inh: blocks KSHV LANA binding to histone H2A/H2B | inhibition, % (no concentration beside the values) | cell-free LANA-H2A/H2B peptide, fluorescence polarization | AID 2629 | 320,000 tested, 0.6% active; in the data active = inhibition mostly above about 10%, no sharp cut-off; inactive = mostly below about 6.7%;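 also: stock transfer was 7.5 nL into about 10 µL; 0% = median of vehicle wells and 100% = median of positive control wells; one replicate is shown; the record names a cut of 25% in any replicate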
Target sequence (Q9QR71 whole entry, looked up): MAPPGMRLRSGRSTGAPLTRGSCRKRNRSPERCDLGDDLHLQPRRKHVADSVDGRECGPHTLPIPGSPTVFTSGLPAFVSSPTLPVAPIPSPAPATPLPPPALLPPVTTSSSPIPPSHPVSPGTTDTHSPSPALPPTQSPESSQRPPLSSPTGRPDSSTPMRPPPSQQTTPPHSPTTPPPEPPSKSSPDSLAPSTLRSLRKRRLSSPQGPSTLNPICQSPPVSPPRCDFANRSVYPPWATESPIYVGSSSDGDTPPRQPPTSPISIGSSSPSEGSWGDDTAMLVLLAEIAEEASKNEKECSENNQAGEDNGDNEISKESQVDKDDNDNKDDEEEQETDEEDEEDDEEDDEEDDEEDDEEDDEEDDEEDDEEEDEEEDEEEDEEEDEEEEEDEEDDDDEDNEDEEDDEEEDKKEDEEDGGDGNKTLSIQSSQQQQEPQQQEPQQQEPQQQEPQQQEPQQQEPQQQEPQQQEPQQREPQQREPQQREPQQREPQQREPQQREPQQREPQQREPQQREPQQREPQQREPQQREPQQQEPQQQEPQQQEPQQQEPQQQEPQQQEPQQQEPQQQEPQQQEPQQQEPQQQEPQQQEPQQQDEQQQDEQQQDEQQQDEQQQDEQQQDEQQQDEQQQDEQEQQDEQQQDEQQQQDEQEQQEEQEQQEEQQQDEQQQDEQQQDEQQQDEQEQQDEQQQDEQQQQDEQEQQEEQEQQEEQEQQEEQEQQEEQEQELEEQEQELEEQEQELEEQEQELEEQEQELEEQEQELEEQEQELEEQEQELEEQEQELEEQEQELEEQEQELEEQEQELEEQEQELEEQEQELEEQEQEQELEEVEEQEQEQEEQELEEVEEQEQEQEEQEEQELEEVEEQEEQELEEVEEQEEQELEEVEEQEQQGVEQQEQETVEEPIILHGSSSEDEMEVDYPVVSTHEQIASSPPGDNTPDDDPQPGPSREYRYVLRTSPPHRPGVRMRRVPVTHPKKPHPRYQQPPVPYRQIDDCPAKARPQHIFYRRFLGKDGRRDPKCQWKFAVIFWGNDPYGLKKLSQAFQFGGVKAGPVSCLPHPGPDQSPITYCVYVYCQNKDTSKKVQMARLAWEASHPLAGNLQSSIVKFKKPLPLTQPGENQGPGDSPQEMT
Active calls of the source: *; / = no result given; & = joins results of further samples. Not a hit list. About 2.1% of those tested had a hit in this group.

structure	A1 inh	Beta2AR agonist	LANA-H2B inh	HNF4A DNA FP	Ecoli growth	Vif A3G	UCH37 inh
CC(C)c1c(C(=O)N/N=C/c2cccc(OCc3ccccc3)c2)nnn1-c1nonc1N	0.2	11.2	-0.2	-4.1	/	/	/
COc1cc(C(=O)NC(=S)NNC(=O)c2cnccn2)cc(OC)c1OC	0.3	8.9	2.7	-2.6	0.62	21.4%	9.6
CN(CC(=O)N1CCN(c2ccc(F)cc2)CC1)S(=O)(=O)c1ccc(F)cc1	-0.2	-3.3	4.1	0.3	0.699	2.3%&-6.1%	-0.1
OCCNc1nc(Nc2ccccc2)nc2ccccc12	-1.4	7.2	-2.6	2.9	0.674	/	3.3
CCOC(=O)c1nc(-c2ccc(OC)c(OC)c2)no1	0.0	6.9	-1.9	-0.2	0.732	31.6%	3.8
CCN(CC)C(=O)c1sc(NC(=O)c2ccc3c(c2)OCO3)c(C#N)c1C	1.5	8.9	-2.1	-2.5	0.66	68.0%	-38.4
COc1ccc(N2CCN(S(=O)(=O)c3ccc(-c4cc(C)no4)s3)CC2)cc1	-0.8	-1.7	2.4	-10.3	0.688	/	0.2
CCc1c(O)nc(SCC(=O)Nc2ccccc2C)[nH]c1=O	-0.9	2.7	5.7	0.1	0.715	2.6%	6.8
Cc1ccc(S(=O)(=O)N2CCCN(Cc3nc4ccccc4c(=O)[nH]3)CC2)cc1	/	-6.8	/	0.5	0.639	-3.3%	-0.4
O=C1NCCN1C(=O)c1ccco1	-1.6	3.3	0.8	-2.2	0.635	-5.0%	1.9
COc1ccccc1C1CCCN1Cc1nc(-c2cc3c(cc2Cl)OCO3)oc1C (stereo unspecified)	-1.1	2.7	1.4	3.1	0.64	/	-8.6
COC(=O)c1ccccc1NC(=O)c1ccc2c(c1)CC(C)O2 (stereo unspecified)	-4.4	-1.6	-4.6	-1.8	0.625	/	-4.0
COCCNC(=O)CN(CC1CCCO1)C(=O)CCC(=O)Nc1ccccn1 (stereo unspecified)	0.4	10.6	-3.6	-1.5	0.778	-10.2%	1.6
CSCCC1NC(=O)N(C(C)C(=O)Nc2cc(Cl)cc(Cl)c2)C1=O (stereo unspecified)	-0.1	-1.1	3.5	0.2	0.728	-1.7%	1.6
CC12CCC(=O)N1C(C(=O)N1CCN(c3cccc(Cl)c3)CC1)CS2 (stereo unspecified)	0.2	3.2	0.5	-0.4	0.654	0.5%	-1.8
O=C(O)CCc1nn2cc(-c3ccccc3)nc2[nH]c1=O	0.6	-9.4	-0.1	-2.6	0.694	8.4%	-140.3

Only LANA-H2B inh, Beta2AR agonist and Vif A3G, for some of the entries so far:
compound,LANA-H2B inh,Beta2AR agonist,Vif A3G
COC(=O)c1ccccc1NC(=O)c1ccc2c(c1)CC(C)O2 (stereo unspecified),-4.6,-1.6,/
COCCNC(=O)CN(CC1CCCO1)C(=O)CCC(=O)Nc1ccccn1 (stereo unspecified),-3.6,10.6,-10.2%
CSCCC1NC(=O)N(C(C)C(=O)Nc2cc(Cl)cc(Cl)c2)C1=O (stereo unspecified),3.5,-1.1,-1.7%

Next results follow:
structure	A1 inh	Beta2AR agonist	LANA-H2B inh	HNF4A DNA FP	Ecoli growth	Vif A3G	UCH37 inh
C/C(=N\Nc1ccc(Cl)cc1)c1ccncc1	0.0	11.6	-1.6	1.4	/	2.9%	/
O=C(CCN1C(=O)[C@@H]2Cc3ccccc3CN2C1=O)NCc1ccccc1	1.0	2.1	3.6	-7.5	0.731	/	3.9
Cc1ccc(NC(=O)CSCC(=O)NNC(=O)c2ccoc2C)cc1	-0.4	-0.2	1.4	3.0	0.705	3.7%	8.1
COc1ccc(NC(=O)c2cc(-c3ccco3)on2)cc1OC	0.1	3.9	0.1	0.8	0.665	/	-26.3
CC(C)N(C(=O)CSc1nc2ccccc2n1-c1ccccc1)C(C)C	1.2	0.8	5.0	-4.7	0.626	6.5%	4.1
Cc1ccc(S(=O)(=O)NCC(=O)OCC(=O)c2c(N)n(C)c(=O)n(C)c2=O)cc1	-1.3	5.5	0.5	-1.8	0.725	/	4.7
COc1ccc(N(CC(=O)NCc2ccco2)C(=O)CNS(=O)(=O)c2ccc(Cl)cc2)cc1	-0.5	-10.5	0.7	-0.7	0.677	-5.3%	3.0
COc1ccc(Cc2nc(-c3cccs3)no2)cc1	-0.2	1.2	-2.6	-2.3	0.691	/	1.8
Cc1cccc(NC(=O)CN2C(=O)N/C(=C\c3ccc(N4CCOCC4)cc3)C2=O)c1	0.0	-6.5	2.0	4.3	0.722	/	-3.7
CC(=O)N1c2ccc(S(=O)(=O)NCCC(=O)Nc3ccc(C)c(F)c3)cc2CC1C (stereo unspecified)	0.0	-2.0	-3.0	-1.6	0.646	/	4.3
O=C(O)C1CCN(C(=O)CCN2C(=O)S/C(=C\c3ccccc3)C2=O)CC1	-0.7	5.6	-6.5	0.7	/	/	/
O=C(N/N=C/c1sc(N2CCOCC2)nc1-c1ccccc1)c1cccc(S(=O)(=O)N2CCCC2)c1	0.5	11.1	/	43.3*	/	6.8%	/
O=C1NC2NC(=O)N(C(Cc3ccccc3)C(=O)O)C2N1 (stereo unspecified)	-0.5	-4.1	0.1	-5.0	0.678	2.0%	2.0
C[C@@H](OC(=O)N1CCCCC1)[C@H]1O[C@]2(C)CCCC[C@H]1O2	-0.3	1.4	3.5	-0.6	/	/	1.4
CN1CCC(=NNC(=O)CN(c2ccccc2)S(=O)(=O)c2ccccc2)CC1	0.5	-1.2	-4.2	-0.8	0.696	/	0.9
CCCC12CN3CC(C)(CN(C1)C3c1ccco1)C2=O (stereo unspecified)	0.9	-0.7	1.6	4.0	0.684	0.5%	-0.7
Cc1ccc2[nH]ccc(=O)c2c1	0.0	-6.6	0.1	0.6	0.695	26.9%	5.0
N#CC(OC(=O)c1ccccc1)c1cccc([N+](=O)[O-])c1 (stereo unspecified)	/	5.1	/	-0.3	0.626	1.1%	0.1
N#Cc1cccc(C(=O)OCC(=O)NC(=O)NC2CCCCC2)c1	1.0	-5.1	1.8	0.8	0.677	-5.6%	0.5
O=C(CSc1nc2ccccc2c(=O)n1Cc1ccco1)NCc1ccco1	-0.6	0.5	-3.2	-3.0	0.704	17.1%	3.4
NC(=O)c1ccsc1NC(=O)COc1ccccc1	1.0	-8.5	1.3	-9.3	0.733	-15.7%	3.0
O=C(NN=Cc1ccc(O)cc1)c1ccccc1NS(=O)(=O)c1cccs1	0.5	11.4	2.9	2.8	0.698	/	7.3
Cc1ccc(-c2cc(C(=O)N3CCN(C4CCS(=O)(=O)C4)CC3)c3ccccc3n2)cc1 (stereo unspecified)	-0.5	2.6	-8.2	5.1	0.729	3.6%	-18.9
Cc1cccn2c(=O)c(/C=C(\C#N)C(=O)NC3CCS(=O)(=O)C3)c(N3CCC(C(N)=O)CC3)nc12 (stereo unspecified)	0.0	-6.4	-2.0	2.4	0.683	/	-17.1
CC(=O)c1ccc(NC(=O)c2ccc3nc(C)sc3c2)cc1	-1.8	8.1	-0.8	-2.9	0.677	-12.1%	5.5
CCCCc1cc(=O)oc2cc(C)cc(OC(C)C(=O)NCc3ccncc3)c12 (stereo unspecified)	0.9	1.9	-3.6	3.0	0.607	/	-139.8
CCOc1cc(S(=O)(=O)N2CCCCCC2)ccc1F	0.2	-9.8	-2.7	-2.8	0.724	6.6%	-1.4
CCC1(c2ccccc2)NC(=O)N(CC(=O)Nc2cc(S(=O)(=O)N3CCCCC3)ccc2N(C)C)C1=O (stereo unspecified)	-0.3	0.9	0.8	-3.4	0.695	-0.1%	-2.3
CCc1ccc(OCCNC(=O)c2cccs2)cc1	-0.3	-5.3	3.0	1.8	0.674	75.7%	1.1
COC(=O)CCC/C=C1/SCC(NC(=O)c2ccccc2)C1=O (stereo unspecified)	1.9	-0.9	-0.7	2.2	0.637	20.1%	2.3
Cc1cc(C)n2nc(C(=O)OCC(=O)N(C)C3CCS(=O)(=O)C3)nc2n1 (stereo unspecified)	-0.3	-1.0	4.9	-1.7	0.707	10.8%	1.4
Cc1ccc(C(=O)Nc2nc(-c3cccnc3)cs2)o1	-2.5	1.6	3.2	0.3	0.678	4.0%	0.1
O=C(C=Cc1ccccn1)c1ccccc1O	/	48.5*	/	3.3	0.622	-1.9%	-1.9
CC1(C)N=C(c2ccccn2)C(C)(C)N1O	-0.3	4.6	3.4	17.6	0.64	0.7%	0.4
CC(C)(C)NC(=O)c1ccccc1NC(=O)C1CCCO1 (stereo unspecified)	-0.5	4.0	-3.4	1.6	0.701	/	6.2
O=C(Nc1ccncc1)c1ccc2c(c1)S(=O)(=O)c1ccccc1C2=O	-2.4	-2.0	-3.1	-4.0	0.686	-14.0%	0.8
Cc1ccc(C(=O)NCCNc2nc3cc(C)c(C)cc3cc2C)cc1	0.2	10.4	-0.2	-1.8	0.714	-0.2%	-3.9
O=C1c2ccccc2C(=O)N1Cc1nc2ccccc2c(=O)n1CCCn1ccnc1	/	-10.6	/	4.1	0.686	5.4%	2.6
Cc1ccc(C(c2sc3nc(C)nn3c2O)N2CCN(c3ccccc3F)CC2)cc1 (stereo unspecified)	0.0	1.8	-2.8	-1.1	0.719	2.5%	4.3
CN1C[C@@H]2[C@@H]3C(=O)N(C)C(=O)[C@@H]3[C@](C)(C1=O)N2C(=O)c1ccccc1	/	7.5	/	0.6	/	/	1.0
O=C(Nc1ccccc1)OC(CN1CCCCC1)C(F)(F)F (stereo unspecified)	1.1	-3.0	3.1	1.1	0.791	2.0%	1.8
COCCN1CCC(CNCc2cn[nH]c2-c2ccc(C)c(C)c2)C1 (stereo unspecified)	-0.4	2.2	-8.3	-1.9	0.691	/	3.4
COc1ccc(OC)c(S(=O)(=O)NC(C)c2ccc(-n3ccnc3)cc2)c1 (stereo unspecified)	13.3*	-1.3	-0.9	4.2	0.669	0.1%	2.5
COc1ccc(-c2cc3ccc(OC)cc3cn2)cc1	-8.6	-0.7	3.0	1.5	0.674	/	-1.8
CCOC(=O)c1nnn(-c2nonc2N)c1CSc1ccccn1	-0.1	-8.4	3.5	-0.5	0.68	-6.4%	1.3
COc1cc([N+](=O)[O-])ccc1-c1ccc(/C=N/NC(N)=O)o1	0.2	2.2	20.4	86.7*	/	2.7%	/
CCOC(CCNC(=O)c1cn(C)c(=O)c2c1c1ccccc1n2C)OCC	0.3	-9.2	-4.2	-2.7	0.688	80.4%	-108.2
N#CC1=C(N)Oc2cc(O)ccc2C1c1ccc(Br)s1 (stereo unspecified)	-0.3	8.0	-4.1	15.7	0.594	/	6.3
Cc1ccc(C(=O)OC(C)C(=O)NC2CCCCC2C)s1 (stereo unspecified)	-1.3	-3.4	0.4	4.8	0.663	-8.8%	4.0
COc1ccccc1-n1c(SCC(=O)N2CCCC2)nc2cccnc21	-2.2	-1.0	-2.6	-3.6	0.75	-6.2%	0.7
Cc1onc(-c2ccccc2Cl)c1C(=O)N1CCN(C(=O)c2ccco2)CC1	-1.6	-4.1	1.1	-2.6	0.679	3.5%	-0.6
CCOC(=O)C1=C(N)Oc2cc(O)ccc2C1c1ccccc1 (stereo unspecified)	1.3	2.6	-1.7	3.0	0.668	6.9%	1.6
O=C(NCC(=O)N1CCN(S(=O)(=O)c2ccccc2F)CC1)c1ccc2ccccc2c1	-0.2	-11.9	1.3	1.1	0.624	5.2%	1.8
